# Beta cell apopt – inhibitors of cytokine-induced beta cell apoptosis, primary screen, luminescence | INS-1E cytokine-induced death, ATP luminescence, 48 h; percent of positive-control rescue, neutral wells zero | protection from apoptosis, % (test concentration not listed) | hit rate 0.8% among 300,000;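 active means all replicates at 75% or more, or half of them and the mean; inconclusive means half reach 75% but not the mean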;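 further: 0% = cytokine-treated negative control wells and 100% = positive control rescue; higher means more ATP so stronger rescue from cytokine killing; wells of about 40 µL received 100 nL stock; the first replicate is given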
# A1 inh – caspase 3/7 activation in MEF A1-2A-BIM cells, primary screen, A1 inhibitor project, cell-based, luminescence, HTS; Caspase-Glo 3/7 luminescence, 3 h; percent of clofoctol response, vehicle zero; hit rate 0.066% among 330,000; caspase activation, % (concentration not given with the values); AID 2462, 2010;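 active means over half of replicate activation scores above 10%, or exactly half above 10 with the replicate mean above 10; inconclusive means replicate mean below 10 yet half the replicates above 10; inactive means over half of replicates below 10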;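 further: wells of about 30 µL received 50 nL stock; many hits fall short of the cut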
# T cruzi repl – inhibitors of intracellular T. cruzi growth, primary screen, luminescence, NIH3T3 host cells. inhibition, % (concentration not given with the values). T. cruzi beta-gal in NIH3T3, 90 h. AID 1885, 2009. hit rate 1.4% among 300,000;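 active means mean inhibition across valid replicates above about 55%, limit read from the data; inconclusive means mean below that limit but half or more replicates reach it; inactive means mean below it, under half of replicates reach it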;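 further: signal also drops with host cell toxicity which is not excluded here; 0% = plate median of DMSO wells and 100% = zero luminescence signal; higher percent means less beta-gal luminescence so fewer parasites; stock transfer was 50 nL into about 50 µL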
# Ecoli growth – E. coli growth inhibition, primary screen, OD600 | hit rate 0.21% among 330,000 | AID 1053175, 2014 | OD600 absorbance (concentration not given with the values) | Escherichia coli growth, 23 h; hits give low values;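 active means OD600 absorbance below the run mean of sample wells minus 3.6 SD, in any replicate, cut at about 0.56 in these data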;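 further: stock transfer was 300 nL into about 60 µL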
# FGF22 binding – binders of human FGF22 protein, primary screen, FGF22 synaptogenesis inhibitor project, biophysical, thermal shift, single point | recombinant FGF22 thermal shift, SYPRO orange fluorescence; percent of sucrose octasulfate shift, DMSO zero | calls only at 9.99 µM | hit rate 1.5% among 340,000 | AID 651658, 2012;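 active means melting point raised past a set limit in the mean and every replicate; inconclusive means no clear call; three in four hits are not shown here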
# Target sequence (Q9HCT0 whole entry, looked up): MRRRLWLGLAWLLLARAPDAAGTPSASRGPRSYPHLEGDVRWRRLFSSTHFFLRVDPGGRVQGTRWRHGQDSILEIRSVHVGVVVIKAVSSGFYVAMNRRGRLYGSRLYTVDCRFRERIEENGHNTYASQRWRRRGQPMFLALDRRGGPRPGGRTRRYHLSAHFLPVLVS
# Ecoli rRNA inh – reduced GFP signal of wild-type E. coli, primary screen, bacterial rRNA inhibitor project, GFP/RFP fluorescence, OD600, single point. E. coli WT GFP vs humanized-ribosome RFP mutants, 24 h; hits give low values; DMSO median 0, no signal -100. GFP signal change (wild-type ribosome), % (no concentration beside the values). hit rate 1.6% among 350,000;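 active means significant combined selectivity score with lowered wild-type GFP, culture density cut under 30%, mutant RFP and density less affected; inactive means any of these conditions unmet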; further: one replicate is shown; some compounds called inactive have numbers as strong as hits
# AF4-AF9 inh – inhibitors of AF4 peptide binding to AF9, primary screen, biochemical, AlphaScreen, biotin-AF4 peptide, FLAG-AF9, single point; Protein AF-9 (Homo sapiens), P42568; inhibition, % at 10 µM; hit rate 0.47% among 350,000; AID 651704, 2012;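 active means every replicate reaching a set inhibition limit, whatever the replicate mean, cut at about 25% in these data; inconclusive means mean inhibition reaches that limit but some replicates miss it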;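 further: 0% = plate neutral control median and 100% = total signal loss; the record names both 10 and 1 µM as test concentration; the first replicate is given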
# Target sequence (P42568 whole entry, looked up): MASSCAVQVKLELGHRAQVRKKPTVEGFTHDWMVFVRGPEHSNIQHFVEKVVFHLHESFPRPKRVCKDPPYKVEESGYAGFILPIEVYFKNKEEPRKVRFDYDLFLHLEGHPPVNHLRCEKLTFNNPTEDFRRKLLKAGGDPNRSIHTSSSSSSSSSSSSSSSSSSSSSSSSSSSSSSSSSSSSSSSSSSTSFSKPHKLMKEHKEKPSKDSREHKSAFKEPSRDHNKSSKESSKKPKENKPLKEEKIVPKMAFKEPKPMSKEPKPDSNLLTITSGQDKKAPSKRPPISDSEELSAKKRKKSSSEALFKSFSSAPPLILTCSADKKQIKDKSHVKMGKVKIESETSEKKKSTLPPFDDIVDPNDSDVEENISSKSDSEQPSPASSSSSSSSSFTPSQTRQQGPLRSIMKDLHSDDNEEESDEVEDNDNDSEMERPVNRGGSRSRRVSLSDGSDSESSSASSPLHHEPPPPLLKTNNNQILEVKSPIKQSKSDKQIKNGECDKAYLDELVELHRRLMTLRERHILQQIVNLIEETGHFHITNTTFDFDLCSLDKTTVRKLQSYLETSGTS
# UCH37 inh – inhibitors of human UCH37 deubiquitinase, primary screen, biochemical, Ub-AMC cleavage, fluorescence. Ubiquitin carboxyl-terminal hydrolase isozyme L5 (Homo sapiens), Q9Y5K5. purified proteasome/UCH37. inhibition, % (no concentration beside the values). hit rate 0.33% among 330,000. AID 588478, 2011;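 active means mean of two replicates above 20%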;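 further: 0% = compound-free wells with enzyme and 100% = wells lacking proteasome; stock transfer was 100 nL into about 20 µL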
# Target sequence (Q9Y5K5 whole entry, looked up): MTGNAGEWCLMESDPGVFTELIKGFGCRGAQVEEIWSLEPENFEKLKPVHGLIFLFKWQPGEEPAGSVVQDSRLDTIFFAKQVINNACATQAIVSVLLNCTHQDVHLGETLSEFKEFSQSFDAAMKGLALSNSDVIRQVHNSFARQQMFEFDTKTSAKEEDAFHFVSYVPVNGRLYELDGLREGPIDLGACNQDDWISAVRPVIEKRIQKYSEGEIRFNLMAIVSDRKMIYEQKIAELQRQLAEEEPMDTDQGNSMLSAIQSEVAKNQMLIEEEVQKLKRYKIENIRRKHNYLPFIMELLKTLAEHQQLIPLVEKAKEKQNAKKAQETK
#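 system = Proteasome-associated human UCH37 deubiquitinase | amount = 0.15 nM proteasome as dispensed | medium = pH 7.4 Tris-HCl (50 mM) with ovalbumin, ATP-MgCl2, DTT | incubation = 30 min preincubation with enzyme, 25 min cleavage at room temperature | detection = AMC fluorescence 355/460 nm | read-out basis = percent inhibition | controls = no-proteasome and no-compound wells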
# Ecoli rRNA inh OD600 – recorded beside Ecoli rRNA inh, whose call it bears; OD600 change, %; measured here: OD600 growth;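 optical density of the mix in the first replicate; 0 = DMSO median and -100 = no signal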
# Ecoli rRNA inh RFP – also measured in Ecoli rRNA inh; calls as there; RFP signal change, %; measured here: RFP humanized mutant strains;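 first replicate; 0 = DMSO median and -100 = no signal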
# * = called active by the depositor; i = inactive; ? = inconclusive; / = no result given. This is a subset; the hit share may differ from the screen's.
# Each structure is followed by: UCH37 inh, FGF22 binding, Ecoli rRNA inh, A1 inh, Ecoli rRNA inh OD600, Ecoli rRNA inh RFP, Ecoli growth, T cruzi repl, Beta cell apopt, AF4-AF9 inh
> CCN(CC)Cc1cc(C(C)=O)ccc1OCC(C)C
    -0.8, i, 20, -0.2, 6, -4.9, 0.64, 18, -1, -50
> COc1cc(/C=C2/C(=O)NN(c3cccc(C)c3)C2=O)cc([N+](=O)[O-])c1O
    /, /, -12, -0.6, -7, -1.4, /, -4, 3, 1.6
> COc1cc([N+](=O)[O-])cc2cc(C(=O)N3CCCC3)c(=O)oc12
    2.5, i, /, 0.5, /, /, 0.67, 6, -15, -2.7
> CC(OC(=O)CNC(=O)c1ccccc1F)C(=O)Nc1nc(-c2ccccc2)cs1 (stereo not given)
    5.8, /, /, -6.5, /, /, 0.62, -1, 2, /
> CC(C)c1ccc(-c2noc(C3CCCN(S(C)(=O)=O)C3)n2)cc1 (stereo not given)
    0.1, i, 4, 1.3, 3, 0.3, 0.65, 21, -5, -30
> Cc1c(NC(=O)c2ccc3c(c2)OCO3)c(=O)n(-c2ccccc2)n1C
    1.8, /, /, -0.2, /, /, 0.66, -13, 3, /
> Brc1ccc(-c2ncc(-c3ccccc3)cn2)cc1
    2.2, /, /, -5.8, /, /, 0.71, 3, -1, /
> O=C(c1ccc(OCc2cn3ccccc3n2)cc1)N1CCN(S(=O)(=O)c2ccccc2F)CC1
    0.3, i, -14, /, -20, 2.6, 0.7, /, /, 3.8
> CC1(C(=O)Nc2ccc3c(c2)OCCO3)CC1(Cl)Cl (stereo not given)
    -1.6, i, 10, -0.6, 9, -0.5, 0.72, -8, -10, -1.9
> CC(C)CCn1cnc2c(c1=O)c1nc3ccccc3nc1n2Cc1ccc2c(c1)OCO2
    -141, i, 3, /, 7, 3.4, 0.67, 7, /, -3.8
> COc1cc(OC)c(NS(=O)(=O)c2cc(C(=O)OCC(=O)NCC3CCCO3)ccc2OC)cc1Cl (stereo not given)
    2.5, i, -10, -1.3, -12, 4.4, 0.67, 2, 1, -0.7
> Cc1ccc(NNc2c(C)nc3ccccc3nc2=O)cc1
    /, /, 0, -0.6, 7, 5.8, /, -22, 7, -3.4
> Cc1ccc(/C=N/NC(=O)C2(C)CC2(Br)Br)cc1 (stereo not given)
    /, /, -7, 0.7, -14, 2.4, /, -17, -10, 2.9
> CCOCCn1c(SCc2ccccc2)nc2c1c(=O)[nH]c(=O)n2C
    1.6, i, -3, 0.5, -7, -3.2, 0.74, 3, 5, -11
> O=c1c2ccccc2nc(N2CCN(c3ccccc3)CC2)n1Cc1ccccc1
    2.1, i, -2, 0.6, -3, -4.6, 0.75, 19, 8, 4.8
> CCCn1nc(Oc2nc(SC)nc(N(C)C)n2)ccc1=O
    5.5, /, /, 0.6, /, /, 0.69, 12, 1, /
> COc1ccc(CCNC(=O)C2CCN(S(=O)(=O)N3CCCCC3)CC2)cc1OC
    -0.3, /, /, 0.8, /, /, 0.64, 0, -6, /
> CCC(C(=O)OCC(=O)N1CCN(S(=O)(=O)c2ccc(C)cc2C)CC1)c1ccccc1 (stereo not given)
    -1.1, i, -1, 1.3, -19, 3.4, 0.7, /, -7, -0.3
> O=C(O)c1ccc(NS(=O)(=O)c2cccc3cccnc23)cc1
    6.8, i, 8, 1.2, 12, -1.9, 0.74, -2, /, -3.8
> COc1ccccc1N1CCN(C(=O)CN2C(=O)c3cccc4cccc(c34)C2=O)CC1
    -0.7, /, -9, 0.7, -22, -4.0, 0.68, 16, -1, 2.6
> COc1ccccc1NS(=O)(=O)c1ccc2nc(CCl)[nH]c2c1
    4.2, i, 6, 2.7, -1, 0.4, 0.69, -5, -1, 2.4
> CCC(CC)C(=O)Oc1c(Sc2ccccc2[N+](=O)[O-])c(C)nn1C(C)(C)C
    0.7, /, /, -0.1, /, /, 0.68, 19, 18, /
> Cc1ccc2[nH]cc(CCNC(=O)c3cccs3)c2c1
    1.6, i, -6, -1.3, -1, -1.9, 0.64, -13, 2, 2.0
> CCOC(=O)c1ccc(NC(=O)c2c(N)n(Cc3ccccc3)c(=O)[nH]c2=O)cc1
    -0.9, /, /, -1.2, /, /, 0.7, -11, 53, /
> Cc1sc2ncnc(NCC3COc4ccccc4O3)c2c1C (stereo not given)
    -0.6, /, /, -0.3, /, /, 0.68, 0, 130*, /
> O=C(Nc1ccccc1Cl)c1csc(-c2cccnc2)n1
    3.3, i, 8, 0.3, -9, -2.9, 0.66, 13, -2, -2.0
> Cc1c(S(=O)(=O)N2CCN(C(=O)c3ccco3)CC2)c(=O)n(C)c(=O)n1C
    2.6, i, 7, -0.2, 9, -3.9, 0.78, -11, 1, 1.0
> O=C1NC(Cc2ccccc2)c2nc3ccc(Cl)cc3c(=O)n2-c2cc(Cl)ccc21 (stereo not given)
    /, i, 2, 0.1, -1, -6.0, /, /, -3, 1.7
> COc1ccc(NS(=O)(=O)c2cccc3ccccc23)cc1
    4.2, i, -39*, -0.2, -15*, -5.0*, 0.64, -5, 1, 0.1
> Cc1ccc(S(=O)(=O)/N=c2\ccc(Cl)cn2C(F)F)cc1
    /, i, 3, 0.0, -6, -2.1, /, 3, -1, -1.1
> Cc1ccccc1NC(=O)N1CCNC(=O)C1CC(=O)Nc1cc(Cl)ccc1Cl (stereo not given)
    3.4, i, -3, 0.2, -12, 5.8, 0.69, -12, 2, 1.9
> CC1CCCN(C(=O)C2CCN(S(=O)(=O)c3cccc4nsnc34)CC2)C1 (stereo not given)
    4.9, i, 6, -0.8, 5, -3.3, 0.68, -19, 0, 0.6
> O=C(COC(=O)C1=COCCO1)Nc1c(F)cccc1F
    -1.0, i, 3, -1.1, 4, 1.5, 0.64, -9, -3, -2.4
> Cc1cccc(NC(=O)c2cc(NC(=O)CCCC(=O)O)ccc2Cl)n1
    0.7, /, /, 0.9, /, /, 0.71, -20, -5, /
> O=C(c1ccccc1)N1CCN(c2ccc([N+](=O)[O-])cc2-n2cccc2)CC1
    4.8, i, -8, 0.0, -1, 22, 0.65, 7, -2, ?
> C=CCn1c(=O)c(C(=O)NCc2ccc3c(c2)OCO3)c(O)c2ccccc21
    -1.7, i, 4, 0.8, -7, -11, 0.67, -15, -4, -10
> COc1ccccc1/C=C/C(=O)Nc1cccc(S(=O)(=O)N2CCOCC2)c1
    -0.6, i, -5, /, -12, 12, 0.7, /, /, 5.6
> c1ccc2c(NC3=NCCCCS3)cccc2c1
    3.6, /, /, 0.8, /, /, 0.7, 12, -4, /
> CC(C)(C)c1ccc(OCCON2C(=O)CCC2=O)c(Cl)c1
    -1.4, /, /, -1.1, /, /, 0.72, -12, -2, /
> Cc1ccc(N(CC(=O)N2CCCCC2)S(=O)(=O)c2ccc(C)cc2)cc1
    6.3, i, -38, 0.0, -49, -7.5, 0.67, 7, -3, 0.2
> CC(SC1=NCCN1S(C)(=O)=O)c1ccccc1 (stereo not given)
    4.0, i, 7, 1.3, 7, 3.0, 0.74, 8, -8, -5.4
> O=C(NC1CCS(=O)(=O)C1)c1cc(-c2ccccc2)nc2ccccc12 (stereo not given)
    -11, /, 7, 0.3, 7, 2.5, 0.64, -1, 1, -0.3
> N#CC(c1ccccc1F)(c1ncc(C(F)(F)F)cc1Cl)N1CCOCC1 (stereo not given)
    4.4, /, /, 0.0, /, /, 0.74, 1, -1, /
> COc1cc(/C=N/NC(=S)Nc2cccnc2)cc(OC)c1OC
    /, i, -7, 0.0, -3, 0.5, /, -11, 0, 0.5
> CN(C)CCCO[C@@H]1[C@H]2OC(C)(C)O[C@H]2O[C@@H]1[C@H](O)CO
    -1.8, i, /, 0.2, /, /, /, /, -1, 0.5
> CC(C)(C)OC(=O)N1CCC[C@H]1c1nnc(SCc2ccc(Cl)cc2)o1
    -12, i, 10, 0.0, -3, 1.8, 0.66, 11, 5, -3.3
> COc1ccc(S(=O)(=O)Nc2cc3[nH]c(=O)oc3cc2C)cc1
    4.0, i, -4, 1.4, -5, -3.6, 0.71, -4, 1, -0.2
> COc1ccc(NC(=O)c2ccc(-c3ccccc3)cc2)cc1NS(=O)(=O)c1ccc(F)cc1
    0.6, /, /, 0.9, /, /, 0.67, 34, /, /
> Cc1cccc(NC(=O)CN2CCN(CC(=O)Nc3ccc(-c4ccccc4)cc3)CC2)c1C
    3.0, i, -6, 1.1, -10, 3.5, 0.67, -1, -7, 2.0
> CC(=O)Nc1cccc(NC(=O)c2cc(-c3cccnc3)nc3ccc(Cl)cc23)c1
    3.4, i, 31, 0.1, 6, 4.1, 0.74, 26, 24, -2.0
> COc1cc2c(=O)n(Cc3ccccc3)c(=O)n(CC(=O)C(C)(C)C)c2cc1OC
    -0.7, /, /, -0.9, /, /, 0.69, 1, 2, /
> COc1ccc(/C=C/C(=O)OCCCN(C)C)cc1
    3.1, i, /, -0.4, /, /, 0.69, 57*, -6, 1.5
> O=C(NCC1CCCCC1)c1cccc([N+](=O)[O-])c1
    -1.2, i, 1, -0.5, 0, 0.4, 0.69, 50, -1, 1.9
> O=C(Oc1cccc2c(OC(=O)N3CCOCC3)cccc12)N1CCOCC1
    0.3, /, /, 0.0, /, /, 0.63, -18, -3, /
> O=C(Nc1nccs1)c1cccc(NC(=O)C(F)(F)F)c1
    2.9, i, 7, -1.2, 4, -2.4, 0.65, -18, 0, -0.7
> CC(OC(=O)c1ccc2c(=O)n3c(nc2c1)CCC3)C(=O)Nc1ccc(C(N)=O)cc1 (stereo not given)
    -17, i, 10, /, 24, -4.8, 0.71, /, /, -1.8
> COc1ccc(-c2nnc(-c3cccs3)o2)cc1OC
    -83, /, /, -7.3, /, /, 0.72, 13, 6, /
> Cc1c(Br)c([N+](=O)[O-])nn1C(C)C(=O)Nc1ccc2c(c1)OCO2 (stereo not given)
    3.0, i, 24, -1.6, 3, -2.4, 0.65, 45, 2, 5.1
> CCCC(=O)N1CCCC(C(=O)c2ccc(OC)c(OC)c2)C1 (stereo not given)
    5.3, i, 13, 0.7, 5, 1.6, 0.68, -6, -8, -0.7
> CCOC(=O)c1c(C)n(C)c2ccc(OC(C)C(=O)OC)cc12 (stereo not given)
    1.1, /, /, 1.4, /, /, 0.71, 3, -7, /
> CCc1ccc(S(=O)(=O)/N=C2\C=C(NS(=O)(=O)c3ccccc3)C(=O)c3ccccc32)cc1
    13, i, -4, /, -19, -3.7, 0.65, -6, /, -1.4
> CC(CCc1ccccc1)NC(=O)c1ccc(C(=O)NC(C)CCc2ccccc2)cc1 (stereo not given)
    -1.1, /, /, 0.7, /, /, 0.78, /, -1, /

# Screening results: PubChem, several laboratories
